# AID923 – qHTS Assay for Allosteric/Competitive Inhibitors of Caspase-1: Spectroscopic Profiling in AFC Spectral Region; compound fluorescence, AFC spectral region (405/520 nm); almost no hit is shown here; Potency, µM (titrated, usually from 57.5 µM), for the others: at the top dose fluorescence increase, most hits filed as activators; actives 1.1% (n = 75,000); AID 923, 2007; active means well fitted activation curve with a large enough effect; inconclusive means small, poorly fitted or top-dose-only effect;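 further: potency means the concentration at half of the fitted maximal effect; 0% is about no effect; scaled to a free AFC standard on each plate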
#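 Baseline compound fluorescence (AFC region, 405 nm ex/520 nm em) taken from the intercept of kinetic reads with 50 nM caspase-1 and 5 uM Ac-WEHD-AFC; normalized to an on-plate AFC standard curve; compounds titrated up to 57 uM.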
# A488 autofl – qHTS Assay for Spectroscopic Profiling in A488 Spectral Region; compound autofluorescence, A488 spectral region, dye equivalency; hits give high values; max dye equivalency, M; AID 591, 2007; actives 0.1% (n = 59,000); active = above 10 nM dye equivalent; inconclusive = 1 to 10 nM; inactive = 1 nM or less; about half of its hits are not listed in these tables;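 further: highest value over a series up to 38 µM; compound alone in buffer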
#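 Readout is A488 dye-equivalent concentration, calibrated by a per-plate six-point Alexa 488 series. Compounds in 100 mM Tris buffer pH 8.0 were incubated 15 min at room temperature. Plates were imaged using 480 nm excitation/540 nm emission filters.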
# Resorufin fluor – qHTS Assay for Spectroscopic Profiling in Resorufin Spectral Region; Compound fluorescence, resorufin region 547/598 nm, buffer; hits give high values; max dye-equivalent concentration, M; actives 0.04% (n = 59,000); active = above 10 nM dye equivalent; inconclusive = 1 to 10 nM; inactive = 1 nM or less; a few of its hits are not listed in these tables; further: highest value over a series up to 38 µM
#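 Dye-equivalent concentration values derive from comparing each well's 547/598 nm fluorescence against resorufin standards included on every plate. Incubation was 15 min at room temperature in 100 mM Tris, pH 8.0.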
# A647 fluor – qHTS Assay for Spectroscopic Profiling in A647 Spectral Region | Compound fluorescence, A647 channel (570/671 nm), Tris buffer | AID 592, 2007 | 59,000 tested, under 10 active | max dye-equivalent concentration, M; active means above 1 µM dye equivalent; inconclusive means 0.1 to 1 µM; inactive means 0.1 µM or less;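 further: values scaled relative to a standard on each plate; highest value over a series up to 38 µM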
#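 Compounds pinned into 100 mM Tris pH 8.0, 15 min at room temperature, then read with 570 nm excitation/671 nm emission filters. Fluorescence normalized to an on-plate six-point Alexa 647 standard curve, giving dye-equivalent concentration per compound concentration.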
# TSHR ag – qHTS Assay for Agonists of the Thyroid Stimulating Hormone Receptor; Thyrotropin receptor (Homo sapiens), P16473; actives 0.48% (n = 73,000); HEK293-CNG-TSHR cells (CNG channel as cAMP sensor), membrane potential dye, cAMP; Potency, µM (titrated, usually from 57.1 µM), for the others: at the top dose activation, usual class: activators; AID 926, 2007; active = well fitted activation curve of enough size with the parental cells flat; inconclusive = any curve in the parental cells; inactive = parental cells flat and receptor cells flat or falling; further: potency means the concentration at half of the fitted maximal effect; % of control where 0% means no effect; weak receptor curves with flat parental cells got no call and are not listed
# Target sequence (P16473 whole entry, looked up): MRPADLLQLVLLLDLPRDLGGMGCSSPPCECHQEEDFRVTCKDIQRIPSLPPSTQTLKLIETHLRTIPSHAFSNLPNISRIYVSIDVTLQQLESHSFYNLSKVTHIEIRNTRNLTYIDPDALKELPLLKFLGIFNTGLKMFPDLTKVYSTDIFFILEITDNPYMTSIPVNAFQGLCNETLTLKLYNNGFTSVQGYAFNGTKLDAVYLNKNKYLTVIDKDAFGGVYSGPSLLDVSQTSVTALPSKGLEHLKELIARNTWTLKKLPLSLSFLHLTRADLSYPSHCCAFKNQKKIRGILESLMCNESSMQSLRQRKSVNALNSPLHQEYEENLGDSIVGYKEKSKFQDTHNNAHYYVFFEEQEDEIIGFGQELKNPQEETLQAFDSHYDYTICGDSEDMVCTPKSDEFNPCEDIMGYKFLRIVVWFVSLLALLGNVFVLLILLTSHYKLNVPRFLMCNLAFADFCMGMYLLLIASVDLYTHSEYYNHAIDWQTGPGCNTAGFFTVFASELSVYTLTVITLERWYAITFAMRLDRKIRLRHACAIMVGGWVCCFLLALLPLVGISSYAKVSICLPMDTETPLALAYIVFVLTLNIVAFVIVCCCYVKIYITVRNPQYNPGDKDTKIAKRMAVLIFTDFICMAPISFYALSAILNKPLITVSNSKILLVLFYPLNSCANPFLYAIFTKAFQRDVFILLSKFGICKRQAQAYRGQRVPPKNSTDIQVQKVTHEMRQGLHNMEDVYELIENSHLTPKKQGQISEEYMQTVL
#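 cAMP rise detected as CNG-channel membrane depolarization by fluorescent dye (emission 590 nm), 30 min after compound, following 60 min dye loading containing 100 uM RO 20-1724 at room temperature. Cells: TSHR/CNG HEK 293, with parental CNG HEK 293 as control.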
# Numbers without * were called inactive; i = inactive; ? = inconclusive; / = no result given; [ ] = another dose, or the depositor's remark.
# The line under a structure holds: Resorufin fluor	A488 autofl	AID923	A647 fluor	TSHR ag
COc1cc2c(O)c3c(c(-c4ccc5c(c4)OCO5)c2cc1OC)C(=O)OC3
 : /	/	12%	/	-13%
COc1ccccc1CNc1cc(-c2cccc(NS(C)(=O)=O)c2)ncn1
 : i	i	-3.3%	1e-09	13%
C=CCn1c(SCn2nnc3ccccc3c2=O)nnc1-c1ccc(Br)cc1
 : i	i	-0.3%	4.7e-09	?
Cc1ccc(SCc2cc(=O)[nH]c(N3CCOCC3)n2)cc1
 : i	i	-0.3%	1.8e-09	8%
c1ccc(CN2CCN(CCN3CCn4c3nc3ccccc34)CC2)cc1
 : i	i	0.2%	2.7e-08	7%
Cc1ccc2nc(SCCC#N)nc(C)c2c1
 : i	i	-1.4%	1e-09	10%
Cn1c(=O)n(CC(=O)O)c(=O)c2c1nc1n2CCS1
 : i	i	0.0%	2e-08	-5%
CCCCCn1c(SCCCC)nc2c1c(=O)[nH]c(=O)n2C
 : i	i	-1.3%	1.4e-09	16%
COc1c(C)cccc1C(=O)Nc1ccc(CN2CCOCC2)cc1
 : i	i	0.6%	5.5e-09	-1%
COc1ccc(C)cc1NC(=O)CSc1nnnn1Cc1ccccc1
 : i	i	-0.3%	4e-08	2%

# 2 of the compounds above, in CSV form:
structure,Resorufin fluor,A488 autofl,AID923,A647 fluor,TSHR ag
Cc1ccc(SCc2cc(=O)[nH]c(N3CCOCC3)n2)cc1,i,i,-0.3%,1.8e-09,8%
c1ccc(CN2CCN(CCN3CCn4c3nc3ccccc34)CC2)cc1,i,i,0.2%,2.7e-08,7%

# Later entries
# The line under a structure holds: Resorufin fluor	A488 autofl	AID923	A647 fluor	TSHR ag
N[C@H](Cc1cccc(-c2ccccc2CP(=O)(O)O)c1)C(=O)O
 : i	i	-2.0%	1.1e-08	6%
CC(=O)c1ccc(C2C=CC(O)C(CO)O2)cc1 (stereo not given)
 : /	/	-2.7%[11.5 µM]	/	-9%[11.4 µM]
COc1cc2nc(-c3ccc(Br)o3)oc(=O)c2cc1OC
 : i	i	7.5%	8.1e-09	11%
CC1(C)CC(NC(=O)CCc2ccccc2)CC(C)(C)N1
 : i	i	2.8%	8.8e-09	0%
CC(c1ccccc1)C1CC(=O)N(CC(=O)O)C1=O (stereo not given)
 : i	i	-2.5%	2.5e-08	2%
O=C(COC(=O)CSCC(=O)N1CCCCC1)Nc1ccc(Cl)cc1
 : i	i	-1.4%	3.2e-08	-3%
Nc1nc2n[nH]nc2c(=O)[nH]1
 : i	i	9.9%[25.7 µM]	1e-09	-17%[25.6 µM]
COc1ccc(CCN(C)CCN2C(=O)c3ccccc3C2=O)cc1OC
 : i	i	1.0%	4.1e-08	1%
O=C1CC(c2ccc(S(=O)(=O)N3CCN(c4ccccc4)CC3)cc2)CN1 (stereo not given)
 : i	i	0.3%	2.7e-08	-8%
COc1cccc(Nc2ncc3nc(C)c(=O)n(C[C@H]4CCCO4)c3n2)c1
 : i	i	4.1%	1.5e-08	9%
Cc1cc(C(=O)Nc2nc3ccc(S(C)(=O)=O)cc3s2)c(C)o1
 : i	i	0.4%	5.3e-09	?
S=C1NC=NC2N=CNC12 (stereo not given)
 : /	/	-0.5%	/	?
Cc1ccc(S(=O)(=O)n2nc(-c3ccc(Cl)cc3)nc2NCc2ccco2)cc1
 : i	i	-0.3%	5e-09	17%
O=C1C=C(N(CCO)CCO)C2(CCCCC2)O1
 : /	/	-0.5%	/	4%
CC1CCc2sc3nc(N4CCN(CCO)CC4)n4ncnc4c3c2C1 (stereo not given)
 : i	i	-1.7%	1e-09	?
CCOc1ccc(-n2c(SC(C)C(=O)OC)nc3c(c2=O)SCC3)cc1 (stereo not given)
 : i	i	1.1%	1e-09	11%[11.4 µM]
CC(=O)N1CCC2(CC1)CN(Cc1ccccc1)C2
 : i	i	0.0%	2e-08	0%
CCOC(=O)C1CCCN(Cc2nc(N)nc(Nc3ccccc3OC)n2)C1 (stereo not given)
 : /	/	3.9%	/	0%
Cc1nc2cncnc2n(C2CC2)c1=O
 : i	i	4.4%	2.8e-08	13%
CC(=O)[C@@]1(O)CC[C@@H]2[C@@H]3CCC4=CC(=O)CC[C@@]4(C)[C@H]3CC[C@]21C
 : i	i	-0.4%	2.2e-09	-14%
CCOC(=O)Cc1csc(SCC(=O)/C(C#N)=C(\C)N)n1
 : i	i	0.4%	1e-09	3%
O=C1CC(c2ccccc2)CN1S(=O)(=O)c1ccccc1 (stereo not given)
 : /	/	-0.8%	/	11%
COCCNC(=O)c1c(N)n(CCCn2ccnc2)c2nc3ccccc3nc12
 : i	i	0.4%	8.1e-09	/
O=C(Cn1ncc2c(=O)oc3ccccc3c21)NCCC1=CCCCC1
 : i	i	1.7%	1e-09	?
O=C(O)C1C2C=CC3(CN(Cc4ccccn4)C(=O)C13)O2 (stereo not given)
 : i	i	-0.6%	1e-09	2%
COc1ccc(OCCC(=O)NCc2ccccc2)cc1
 : i	i	-0.2%	1.4e-08	/
CCOc1cc(-c2noc(CCCC(N)=O)n2)cc(Br)c1OC
 : i	i	0.6%	1e-09	0%
O=C(C1=C(O)C(=O)N(CCCN2CCOCC2)C1c1ccccn1)c1cc2ccccc2o1 (stereo not given)
 : i	i	/	1e-09	/
C=CCN1C(=O)CSc2ccc(C(=O)OCC)cc21
 : i	i	0.3%	5e-09	16%
O=C(NCCN1CCCC1)c1cc(-c2ccncc2)nc2ccc(S(=O)(=O)N3CCOCC3)cc12
 : i	i	-0.9%	2.5e-08	-5%
O=C(O)CCN1C(=S)CSC1=S
 : i	i	0.9%[11.5 µM]	1.9e-09	-8%[11.4 µM]
C/C(=N\NC(=O)c1ccncc1)c1ccc2ccccc2c1O
 : i	?	2.1%[11.5 µM]	1.1e-08	4%[11.4 µM]
Cn1c(=O)c2nnn(/N=C(\c3ccccc3)C3CC3)c2n(C)c1=O
 : i	i	-2.4%	5.6e-09	10%
CS(=O)(=O)N1CCN(c2ccccc2NC(=O)Cc2ccccc2)CC1
 : i	i	-0.3%	4.7e-08	/
CCC(C)[C@H](NC(=O)NCc1ccccc1)C(=O)O (stereo not given in full)
 : i	i	-0.5%	3.2e-08	9%
CC(OC(=O)C1CC=CCC1C(N)=O)C(Cl)=C(Cl)Cl (stereo not given)
 : /	/	0.7%	/	3%
Cn1c(NCc2ccco2)nc2c1c(=O)n(Cc1ccc(Cl)c(Cl)c1)c(=O)n2C
 : i	i	/	4.3e-08	/
CCCCOc1ccc(N2C(=O)CC(N(O)c3ccccc3)C2=O)cc1 (stereo not given)
 : i	i	0.2%	1e-09	-24%
CCN1C(=O)c2cccc3c(NC(=O)C(C)(C)C)ccc1c23
 : i	i	4.9%	2.8e-09	-1%
O=C(c1ccccc1)n1ccc2ccccc21
 : /	/	0.8%	/	?
O=C(Cn1c(=O)sc2ccccc21)NCc1ccco1
 : i	i	1.1%	2.3e-09	-3%
CCCC(=O)Nc1cc(-c2cn3cccnc3n2)ccc1OC
 : i	i	0.5%	3.1e-08	-7%
O=c1[nH]c(=O)n(Cc2ccccc2)c2c1CCC2
 : i	i	-0.1%	3.5e-08	1%
CC12CN3CC(C)(CN(C1)C3c1ccccc1Cl)C2O (stereo not given)
 : i	i	-0.3%	5.8e-08	3%
Cc1ccc(-n2cc(-c3ccccc3)[nH]c2=O)cc1F
 : i	i	0.7%	1e-09	-10%
COC(=O)c1ccc(C(NC(=O)OCc2ccccc2)/C(=C/[C@@H](C)C(=O)N[C@@H](CO)Cc2ccccc2)c2cccnc2)cc1 (stereo not given in full)
 : /	/	0.6%	/	?
CCOC(=O)C(Sc1ncn[nH]1)c1ccccc1 (stereo not given)
 : /	/	-0.6%	/	-8%
CCN1C(=O)CC(N2CCN(c3ccc(C(=O)c4ccccc4)cc3)CC2)C1=O (stereo not given)
 : i	i	-0.4%	3.9e-08	14%
CCc1c(C(=O)NCCc2ccc(OC)c(OC)c2)[nH]c(C)c1C(C)=O
 : i	i	-0.9%	8.3e-09	3%
COc1ccc(-c2cc3c(=O)n(CC(=O)NC4CCN(Cc5ccccc5)CC4)ncn3n2)cc1
 : i	i	0.4%	1e-09	6%

# New compounds follow.
# The line under a structure holds: Resorufin fluor	A488 autofl	AID923	A647 fluor	TSHR ag
CCCn1c(=S)[nH]c2cc(C(=O)N3CCN(c4ccccc4OC)CC3)ccc2c1=O
 : i	i	-0.5%	5.5e-09	-9%
CC1(C)N=C(c2cccc(F)c2)C(=O)N1
 : i	i	1.0%	1e-09	-2%
O=c1oc2cc(OCc3nn[nH]n3)ccc2c2c1CCCC2
 : i	i	0.8%	1e-09	/
Cn1c(=O)c2[nH]c(NCC3CCCO3)nc2n(-c2ccccc2)c1=O (stereo not given)
 : i	i	0.8%	6e-09	-4%
CCOc1ccc(C(=O)NC2CCN(S(C)(=O)=O)CC2)cc1
 : i	i	-2.4%	1e-09	-7%
COc1ccc(S(=O)(=O)N2CCCC2C(=O)Nc2ccc(O)cc2)cc1 (stereo not given)
 : /	/	-1.2%	/	-12%
Clc1ccc(-n2cnnn2)cc1
 : i	i	1.8%	1e-09	1%
O=C(CSc1nnc([C@@H]2CCCN2)o1)c1ccc(Cl)cc1
 : i	i	0.3%	6.7e-09	2%
CC1CCCN(C(=O)Nc2cccc(NC(=O)N3CCCC(C)C3C)c2)C1C (stereo not given)
 : i	i	1.4%	3.3e-09	7%
COC(=O)c1cc(NC(=O)c2ccc(Cn3cc(Cl)cn3)o2)cc(C(=O)OC)c1
 : i	i	0.4%	6.8e-09	1%
O=C1CC(c2ccc3c(c2)OCO3)c2cc3c(cc2N1)OCO3 (stereo not given)
 : i	i	-0.9%	1.3e-08	16%
c1cncc(CNc2ncnc3ccc(-c4ccoc4)cc23)c1
 : i	i	0.7%	3.2e-08	2%
Cc1c(Br)cc(C(=O)OC2CCN(C)CC2)c(C)c1C
 : i	i	-1.2%	1e-09	12%
COC(=O)CN1C(=O)C(O)(CC(=O)c2cccc(Br)c2)c2ccccc21 (stereo not given)
 : /	/	-0.1%	/	-17%
COC(=O)c1ccccc1NC(=O)Cn1c(SC)c(F)cnc1=O
 : i	i	-0.1%	1.5e-08	?
Cc1noc(/C=C/N(C)C)c1S(=O)(=O)N1CCc2ccccc21
 : /	/	3.2%	/	3%
COc1cccc(-c2nc(CS(=O)(=O)CC(=O)N3CCN(c4ccccn4)CC3)c(C)o2)c1
 : /	/	-1.6%	/	17%
C=CCn1c(SCC(=O)NC2CCCC2)nc2scc(-c3ccco3)c2c1=O
 : i	i	2.9%	1.8e-08	?
CSC(=Nc1ccccc1)C1=C(O)COC1=O
 : i	i	/	2.1e-08	/
Clc1ccccc1-c1nnc2sc(-c3ccccn3)nn12
 : i	i	-0.6%	1.8e-08	6%

# Random excerpt: 2 records from the list, in no set order.
# The line under a structure holds: Resorufin fluor	A488 autofl	AID923	A647 fluor	TSHR ag
COc1cccc(-c2nc(CS(=O)(=O)CC(=O)N3CCN(c4ccccn4)CC3)c(C)o2)c1
 : /	/	-1.6%	/	17%
Clc1ccccc1-c1nnc2sc(-c3ccccn3)nn12
 : i	i	-0.6%	1.8e-08	6%

# Next part
# The line under a structure holds: Resorufin fluor	A488 autofl	AID923	A647 fluor	TSHR ag
Cc1ccc2nc(C3CCN(C(=O)c4ccco4)CC3)[nH]c2c1
 : i	i	-1.0%	9.2e-09	0%
Cc1cccc(N2CCN(Cc3c(C)n(C)n(-c4ccccc4)c3=O)CC2)c1C
 : /	/	-0.7%	/	16%[11.4 µM]
Cc1nn(Cc2ccc(Cl)c(Cl)c2)c(C)c1NC(=O)c1cc(-c2ccc3c(c2)OCO3)on1
 : i	i	1.5%	3.3e-09	3%
CC(=O)Nn1cc2c(c1-c1ccccc1)c(=O)n(C)c(=O)n2C
 : /	/	3.3%	/	16%

# Screening data: PubChem BioAssay, National Center for Advancing Translational Sciences (NCATS)

# Not all compounds are listed; count on the stated rates, not on these rows.
